Yeast UUG start – modulators of yeast start codon fidelity, primary screen, whole organism, S. cerevisiae, single point, plate reader; 350,000 compounds, 0.13% hits; S. cerevisiae UUG-firefly luciferase reporter, luminescence/redox ratio; AID 602363, 2012; activity score, % at 18.7 µM;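 active means replicate mean at a twofold rise or more, about +100% in these data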;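 further: firefly luciferase made from a UUG start codon reports start codon fidelity; reporter light over untreated wells divided by growth signal over untreated wells; some hits fall short of that in this replicate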
PABP polyA inh – PABP poly(A) RNA binding inhibitors, primary screen, biochemical, fluorescence polarization, uHTS; Polyadenylate-binding protein 1 (Homo sapiens), P11940; inhibition, % at 35 µM; 290,000 compounds, 1% hits; AID 2014, 2009;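 active means 50% or more with normal probe brightness, or confirmed in later tests; about a fifth of its hits are not listed in these tables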;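 further: calls also rest on retests at 20 µM and on dose response follow-up; controls were probe without protein and protein plus probe with vehicle; some compounds called inactive have numbers as strong as hits; many hits fall short of the cut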
MT1-MMP act inh – blockers of MT1-MMP proenzyme processing, primary screen, HT1080 RFP-PRO-GFP cells, GFP/RFP fluorescence; GFP/RFP ratio fluorescence, overnight; percent of plate control window, DMSO zero; Matrix metalloproteinase-14 (Homo sapiens), P50281; GFP/RFP ratio change, % at 20 µM; 360,000 compounds, 0.061% hits; AID 651647, 2012;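 active means GFP/RFP ratio change of at least 30% with cell ATP level not reduced by more than half and red fluorescence within 50% of control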; further: strong numbers were not always called active
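Assay system: HT1080 RFP-PRO-GFP cells | Dosing: 20 µM single dose, 1% DMSO | Incubation: Cells overnight before dosing, compound overnight, 37 °C, 5% CO2 | Evaluation: GFP/RFP fluorescence ratio | Control set: DMSO-only wells and HT1080 RFP-L50D-GFP cell wells as references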
Rce1 inhib – yeast Rce1p protease inhibitors, primary screen, biochemical, fluorescence, cell-free homogeneous. CAAX prenyl protease 2 (Saccharomyces cerevisiae (strain ATCC 204508 / S288c)), Q03530. 290,000 compounds, 0.27% hits. AID 2563, 2010. calls only. yeast membranes, quenched prenylated peptide cleavage fluorescence;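 active means fall in fluorescence gain of 50% or more versus controls, with final raw signal at or below 3038400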;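 further: plate controls were neutral control wells for no effect and wells lacking membranes for full effect; tested at 10 µM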
Target sequence (Q03530 whole entry, looked up): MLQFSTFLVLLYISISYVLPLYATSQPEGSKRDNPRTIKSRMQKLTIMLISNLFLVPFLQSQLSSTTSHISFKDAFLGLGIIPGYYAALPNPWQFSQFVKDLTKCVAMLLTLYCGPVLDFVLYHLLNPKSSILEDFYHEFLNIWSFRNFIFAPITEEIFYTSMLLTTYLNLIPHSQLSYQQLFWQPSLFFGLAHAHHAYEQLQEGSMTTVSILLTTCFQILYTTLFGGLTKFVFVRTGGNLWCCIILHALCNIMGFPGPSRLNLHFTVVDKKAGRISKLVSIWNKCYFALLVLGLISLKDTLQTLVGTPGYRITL
CSC inhib – cancer stem cell viability inhibitors, primary screen, luminescence; inhibition, % at 7.5 µM; cancer stem cell-like cells viability; 300,000 compounds, 1.1% hits;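 active means mean at 75% or more and at least half the replicates too; tested in HMLE shEcad cells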;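 further: 0% = median of negative and 100% = median of positive control wells; the first replicate is given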
eIF4H FP inh – human eIF4H binding inhibitors, primary screen, translation initiation inhibitor project, biochemical, uHTS, fluorescence polarization | Eukaryotic translation initiation factor 4H (Homo sapiens), Q15056 | eIF4H fluorescence polarization binding assay | inhibition, % at 35 µM | 290,000 compounds, 0.94% hits | AID 2012, 2009;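 active means 50% or more with normal probe brightness, or confirmed in later tests; about a fifth of its hits are not listed in these tables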;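 further: calls also rest on retests at 20 µM and on dose response follow-up; 0% = protein and probe with vehicle and 100% = probe without protein; strong numbers were not always called active; many hits fall short of the cut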
HIV Env fusion – inhibitors of HIV-1 Env-driven cell-cell fusion, primary screen, HeLa-JRFL effector, CEM21 target cells, luciferase; inhibition, % at 12.3 µM; 360,000 compounds, 1.1% hits; AID 651610, 2012;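 active means mean replicate inhibition score of at least 50 and every replicate individually at or above 50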;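 further: 0% = plate neutral controls and 100% = maraviroc near 300 nM; one replicate is shown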
eIF4H FP inh retest – also measured in eIF4H FP inh; calls as there; inhibition, %; compound at 20 µM; confirmation average;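 mean of two retest wells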
PABP polyA inh retest – recorded beside PABP polyA inh, whose call it bears; inhibition, %; compound at 20 µM; confirmation repeats;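 mean of two retest wells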
MT1-MMP act inh RFP – further read-out of MT1-MMP act inh, marked with its call; RFP signal change, %; measured here: RFP expression control read;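 0 = vehicle wells; hits needed this value within 50% of zero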
* marks the source's active call; other numbers are inactive results; i = inactive; · = not tested or not shown; & = joins results of further samples; [ ] = another dose, or the depositor's remark. Only part of the results is shown; the hit share may differ from the screen's.

SMILES | Yeast UUG start | PABP polyA inh | MT1-MMP act inh | MT1-MMP act inh RFP | Rce1 inhib | CSC inhib | eIF4H FP inh | HIV Env fusion | others
Cc1cn([C@H]2C[C@H](O)[C@@H](/C=C/C(=O)NCCc3ccc4c(c3)OCO4)O2)c(=O)[nH]c1=O | -1 | · | 4 | 7 | · | · | · | -12
CC1(C)CC(=O)C=C(c2cccc3c2sc2ccccc23)C1 | -22 | · | 0 | 0 | · | 19 | · | -5
O=C(Nc1cccc2cccnc12)c1ccc(Cl)cc1Cl | -16 | 8 | 4 | 4 | i | 10 | 4 | -8
Cc1ccc(-n2c(C)cc(C(=O)CN3C(=O)C(=O)N(C4CCCC4)C3=O)c2C)cc1 | · | 4 | -1 | -2 | i | 0 | 1 | 5
c1ccc([C@H]2CN3CCSC3=N2)cc1 | 5 | · | 3 | 4 | · | -6 | · | 4
O=C(NCc1ccc2c(c1)OCO2)c1ccc(-n2cnnn2)cc1 | · | -6 | 6 | 8 | i | 5 | 2 | ·
O=C(O)c1cccc(-n2cccc2C=C2C(=O)c3ccccc3C2=O)c1 | · | -4 | 16 | 9 | i | 2 | 61 | 20 | eIF4H FP inh retest=-5;PABP polyA inh retest=9
O=C1CCCc2ccc3ccccc3c21 | -9 | · | 1 | 4 | · | · | · | 5
Cc1ccc(C)c(Cn2c(=O)n(CCCC(=O)NCc3ccco3)c(=O)c3sccc32)c1 | -21 | 3 | -5 | -14 | · | -2 | 6 | -48
Cc1ccc(NS(=O)(=O)c2cc(Br)cnc2N)cc1C | -10 | 1 | 5 | 1 | i | 32 | -6 | 1
Cc1ccc(Cl)cc1NS(=O)(=O)c1ccc(-n2cccn2)cc1 | -17 | 12 | -5 | -1 | i | 5 | -4 | 0
COc1ccc(OC)c(S(=O)(=O)NCc2nc3nc(C)cc(C)n3n2)c1 | -4 | 3 | 0 | 4 | i | -15 | -1 | -5
CC(=O)c1ccc(NC(=O)Oc2ccccc2)cc1 | -11 | 2 | -1 | 2 | i | -1 | -7 | ·
COc1cccc(C(C)(O)c2nc(/C=C/c3ccccc3)cs2)c1 (configuration not stated) | -17 | · | -4 | -23 | · | · | · | 42
CCc1ccccc1NC(=O)CCc1c(C)nc(SC)nc1C | · | 18 | 0 | 1 | i | -8 | 2 | -8
COCCNC(=O)CC(=O)N/N=C/c1cccc(C(=O)OC)c1 | · | -3 | 1 | 5 | i | -9 | -14 | 12
Cc1nc2ccccc2c(=O)n1NC(=O)c1cc(Br)ccc1Cl | -5 | 2 | 3 | 4 | i | -9 | -9 | 13
CN(CCc1ccccn1)C(=O)CCC1CCCN(C(=O)c2cscn2)C1 (configuration not stated) | · | -2 | 3 | 5 | i | -10 | -4 | 10
c1ccc(Cn2cc(-c3ccccc3)cn2)cc1 | -16 | · | 4 | 0 | · | 8 | · | -31
CCOc1ccccc1NC(=O)N1CCC(C(=O)c2ccc(F)cc2)CC1 | · | -15 | 8 | 15 | i | -16 | -11 | -7
COc1ccc(C(CNC(=O)c2ccc(OCC3CCCO3)cc2)N2CCOCC2)cc1 (configuration not stated) | -18 | 0 | -1 | 0 | · | -7 | 4 | ·
O=C(/C=C/c1ccccc1)Nc1cccnc1Cl | -15 | 2 | 0 | -2 | i | 7 | -20 | -46
CCOc1ccc(C(=O)OCC(=O)Nc2nc(OC)cc(OC)n2)cc1OCC | -15 | 4 | 8 | 4 | i | -3 | 4 | -34
O=C(Nc1ccc2[nH]c(=O)[nH]c2c1)Nc1ccc(F)cc1F | -12 | 5 | 3 | 1 | i | -14 | -5 | 1
CCC1CCCCN1Cc1nc2c(c(=O)n(C)c(=O)n2C)n1CC(C)C (configuration not stated) | 1 | 7 | 2 | 6 | i | -11 | -4 | -6

Continued, starting with the last 7 of the part before.
SMILES | Yeast UUG start | PABP polyA inh | MT1-MMP act inh | MT1-MMP act inh RFP | Rce1 inhib | CSC inhib | eIF4H FP inh | HIV Env fusion | others
c1ccc(Cn2cc(-c3ccccc3)cn2)cc1 | -16 | · | 4 | 0 | · | 8 | · | -31
CCOc1ccccc1NC(=O)N1CCC(C(=O)c2ccc(F)cc2)CC1 | · | -15 | 8 | 15 | i | -16 | -11 | -7
COc1ccc(C(CNC(=O)c2ccc(OCC3CCCO3)cc2)N2CCOCC2)cc1 (configuration not stated) | -18 | 0 | -1 | 0 | · | -7 | 4 | ·
O=C(/C=C/c1ccccc1)Nc1cccnc1Cl | -15 | 2 | 0 | -2 | i | 7 | -20 | -46
CCOc1ccc(C(=O)OCC(=O)Nc2nc(OC)cc(OC)n2)cc1OCC | -15 | 4 | 8 | 4 | i | -3 | 4 | -34
O=C(Nc1ccc2[nH]c(=O)[nH]c2c1)Nc1ccc(F)cc1F | -12 | 5 | 3 | 1 | i | -14 | -5 | 1
CCC1CCCCN1Cc1nc2c(c(=O)n(C)c(=O)n2C)n1CC(C)C (configuration not stated) | 1 | 7 | 2 | 6 | i | -11 | -4 | -6
N=c1c(C(=O)NCC2CCCO2)cc2c(=O)n3ccccc3nc2n1C1CCCC1 (configuration not stated) | -9 | 15 | 0 | -2 | i | -2 | 12 | 2
O=C(CNC(=O)C1CCCCC1)OCC(=O)c1cccc(Cl)c1 | 2 | · | 3 | 8 | · | -8 | · | 2
COc1ccc(C(=O)NNC(=O)c2ccc(C(C)(C)C)cc2)cc1 | -1 | -1 | 1 | 4 | i | -3 | 0 | 16
CCOC(=O)C1CCN(C(=O)CN(c2ccc3c(c2)OCO3)S(C)(=O)=O)CC1 | -16 | 15 | 3 | 3 | · | 17 | -2 | ·
COc1cc(OC)c(OC)cc1CN1CCN(S(=O)(=O)c2ccc(NC(C)=O)cc2)CC1 | · | 6 | 11 | 4 | i | 9 | 2 | 1
COC(=O)[C@@H](NC(=O)NC1CCCCC1C)C(C)C (some centres not stated) | · | -1 | 0 | 2 | i | 10 | -10 | -12
CCC(C)n1c(SCc2ccccc2)nc2ccsc2c1=O (configuration not stated) | -17 | -6 | -3 | -3 | i | 34 | -9 | ·
CC1(C)Cc2ccccc2-c2nc(NCCO)n(-c3ccccc3)c(=O)c21 | -5 | 12 | 1 | 1 | i | -9 | 6 | ·
Cc1cc(C)cc(CC2CC(=O)N(c3cc(C)on3)C2=O)c1 (configuration not stated) | 4 | 2 | 4 | 5 | i | 1 | -5 | -7
O=C(CCS(=O)(=O)Cc1ccccc1)Nc1ncc([N+](=O)[O-])s1 | -19 | -8 | -2 | -2 | i | 11 | -7 | -22
c1ccc(COc2ncnc3c2ncn3CCCNCCN2CCOCC2)cc1 | -13 | · | 2 | 5 | · | · | · | 16
COc1ccccc1NC(=O)COc1ccc(C(F)(F)F)cc1[N+](=O)[O-] | -1 | · | 3 | -5 | i | -2 | · | ·
CCCCn1c(Cc2ccccc2)n[nH]c1=S | -29 | 5 | 0 | -1 | i | · | -8 | 7
O=C(/C=C/c1ccccc1)Nc1cccnc1Oc1ccccc1F | -9 | 1 | 0 | -7 | i | 10 | 1 | -26
Cc1cc(NC(=O)C(C)SCC(=O)Nc2nnc(CC(C)C)s2)no1 (configuration not stated) | -16 | · | 3 | 0 | i | · | · | -22
COc1ccc(-c2[nH]c(-c3ccc(SC)cc3)nc2SCC(=O)Nc2nccs2)cc1 | · | 7 | -1 | -11 | i | 41 | 13 | 14
Nc1nnc(SCC(=O)c2ccco2)s1 | · | -3 | -1 | -2 | i | 0 | -15 | -35
CCc1noc(C)c1C(=O)Nc1ncc(C)s1 | -9 | 5 | 2 | 2 | i | -8 | 1 | -20
CN1CCN(C(=O)c2cnn(-c3ccccc3)c2NC(=O)c2ccccc2F)CC1 | -3 | -12 | 3 | 3 | i | -14 | -6 | ·
COc1ccc(CNC(=O)CCc2c(C)nc3ncnn3c2C)cc1 | -28 | -6 | -3 | 1 | i | -9 | 6 | -9
C[C@H](CO)N1C[C@H](C)[C@@H](CN(C)S(=O)(=O)c2cccs2)Oc2ccc(NC(=O)Nc3ccc4c(c3)OCO4)cc2C1=O | -18&2 | · | 13 | 3 | · | -9 | · | -14[16.7 µM]
C/C(=C/C(=O)Nc1cccc(F)c1)N1CCCC1 | · | -5 | 0 | -1 | i | 3 | 7 | -11
COc1ccccc1N1CCN(S(=O)(=O)c2cnc[nH]2)CC1 | -3 | 12 | 3 | 7 | i | -6 | -6 | -76
O=[N+]([O-])c1ccc(S(=O)(=O)CC(CN2CCOCC2)N2CCOCC2)cc1 (configuration not stated) | -14 | 10 | 2 | -1 | i | -4 | 2 | 3
O=C(CSc1nnc(CNC(=O)c2ccco2)o1)c1ccc(Cl)cc1 | -15 | 11 | -6 | -2 | i | 2 | -2 | -9

New compounds follow:
SMILES | Yeast UUG start | PABP polyA inh | MT1-MMP act inh | MT1-MMP act inh RFP | Rce1 inhib | CSC inhib | eIF4H FP inh | HIV Env fusion | others
O=C(Nc1nnc(-c2ccc(Cl)s2)o1)C1CCCCC1 | -4 | · | 9 | 4 | i | 2 | · | 3
COc1ccccc1CNS(=O)(=O)c1cc(C(=O)NCc2ccccn2)c(Cl)cc1Cl | -9 | · | 7 | -3 | · | · | · | -1
COc1ccc(C2(c3ccc(OC)cc3)NC(=O)N(CC(=O)N(C)C3CCC(C)CC3)C2=O)cc1 (configuration not stated) | -15 | · | -2 | -4 | · | -3 | · | ·
COC(=O)c1cccc(NC(=O)c2ccc3c(c2)C(=O)N(Cc2cccnc2)C3=O)c1 | 1 | 39 | 4 | 2 | i | -1 | -16 | 14
O=C(CN1C(=O)c2ccccc2C1=O)Nc1sc2c(c1C(=O)NCc1ccco1)CCCC2 | 4 | 6 | -4 | 0 | i | -25 | 0 | ·
Cc1ccc(C(=O)OCC(=O)Nc2cccc(S(=O)(=O)NC3=NCCCCC3)c2)c(C)c1 | -6 | -4 | 1 | -4 | i | -17 | 18 | -16
Cn1c(SCC(=O)Nc2ccccc2)nc2c([nH]c3ccccc32)c1=O | 1 | 2 | -2 | 0 | i | 8 | 4 | -11
Cc1cccc(C)c1NC(=S)NNc1ncc(C(F)(F)F)cc1Cl | -12 | -1 | -3 | 0 | i | 8 | 2 | ·
Cc1cc(C)c(S(=O)(=O)N2CCCCCC2)cc1Br | · | -1 | -4 | -4 | i | -4 | -4 | 32
Cc1ccc(SCC(=O)NCc2ccccc2C)cc1 | 5 | -4 | -2 | -2 | i | 2 | 4 | 4
CCCc1cc(=O)[nH]c(/N=C(\N)Nc2ccccc2)n1 | -7 | -1 | -8 | 0 | · | -3 | -9 | -41

2 compounds picked at random from those above:
SMILES | Yeast UUG start | PABP polyA inh | MT1-MMP act inh | MT1-MMP act inh RFP | Rce1 inhib | CSC inhib | eIF4H FP inh | HIV Env fusion | others
COc1ccccc1CNS(=O)(=O)c1cc(C(=O)NCc2ccccn2)c(Cl)cc1Cl | -9 | · | 7 | -3 | · | · | · | -1
Cc1ccc(SCC(=O)NCc2ccccc2C)cc1 | 5 | -4 | -2 | -2 | i | 2 | 4 | 4

Source: PubChem (several laboratories)
